# MgrA DNA FP: alters Staphylococcus aureus MgrA binding to DNA; fluorescence polarization; inhibition, %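 (about 10 µg/mL by stock and volumes)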; 84,000 tested, 0.13% active;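 active = above 50% in either of two replicates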;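 note: 0% = protein plus DNA without compound and 100% = DNA alone without protein; higher means less MgrA bound to DNA so lower polarization; one replicate is shown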
# S aureus helic: blocks Staphylococcus aureus DNA helicase; 120,000 tested, 0.05% active; purified S. aureus helicase, fluorescence unwinding assay; about half of the hits fall short of the stated cut; AID 485395; inhibition, %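 (tested at about 80 µM)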;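 active = both duplicates at 50% or more, or one of them with a favoured structure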;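 note: 0% = mean of negative control wells and 100% = mean of positive control wells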
# * = called active by the depositor; · = not tested or not shown.
smiles	MgrA DNA FP	S aureus helic
O=C1O[C@@H]2C[C@H]3C[C@@H]2[C@@H]1[C@H]3C(=O)N1CCN(c2ccccc2)CC1	·	-21
Cc1cc(C(=O)CSc2nnc(SCC(=O)c3cc(C)n(CC4CCCO4)c3C)s2)c(C)n1CC1CCCO1 (stereo unspecified)	·	2
CC(C)c1nc2ccccc2n1C(=O)c1ccccc1C(=O)O	-0.9	0
Cc1ccc(S(=O)(=O)N2CCCC2C(=O)OCC(=O)Nc2cc(C)on2)cc1 (stereo unspecified)	·	-8
C(=N\c1nc2ccccc2n1CCN1CCCCC1)/c1ccc2c(c1)OCO2	·	-22
CSCCC(=O)N1CCN(c2ncccn2)CC1	·	-3
O=C(NCc1cccs1)c1ccc(=O)[nH]c1	·	14
CCCn1c(CCC(=O)O)ccc1-c1ccccc1	-2.0	3
O=C(Nc1ccc(F)cc1F)c1c(C(F)(F)F)ccnc1Oc1ccccc1	-2.2	·
CN1C(=O)C(C)(C)c2cc(S(=O)(=O)N(C)CC(=O)NCc3ccccc3)ccc21	-0.6	7
CN(C)Cn1c(=S)oc2cc(S(=O)(=O)Nc3ccccc3Cl)ccc21	·	15
O=C(NCCCc1ccccc1)c1cccs1	3.7	3
Cc1cccc(C)c1NC(=O)C1C2C=CC(C2)C1C(=O)NCc1ccccn1 (stereo unspecified)	0.0	17
c1ccc(Nc2nc(CN3CCCCC3)cs2)cc1	3.5	·
C=CCC1CC(=O)N(c2ccc(C(F)(F)F)cc2)C1=O (stereo unspecified)	1.5	·
C=CCNC(=O)c1c(N)n(-c2cccc(S(N)(=O)=O)c2)c2nc3ccccc3nc12	·	12
O=C(CSCc1ccccc1)NCc1ccc2c(c1)OCO2	-1.4	5
O=C(CN1CCN(c2ccc(O)cc2)CC1)c1ccc[nH]1	·	14
CCN(CC)c1ccc(NC(=O)CNCC2CCCCC2)c(C)c1	-3.5	19
CCc1oc2ccccc2c1C(=O)c1cc(Br)c(O)c(Br)c1	0.6	·
O=C(O)C1(c2ccccc2)CCOCC1	·	-3
CC1CC(C)CN(C(=O)CNC(=O)Cn2cnc3ccccc3c2=O)C1 (stereo unspecified)	·	-4
CS/C(=N\S(=O)(=O)c1ccccc1)N1CCCCC1	-1.5	·
COc1ccc(C2C(C(=O)O)c3ccccc3C(=O)N2Cc2ccc(F)cc2)cc1 (stereo unspecified)	2.7	·
Cc1[nH]cc(Br)c(=O)c1OCC(=O)O	·	-31
O=C(Nc1sc2c(c1C(=O)N1CCCCC1)CCCC2)c1ccco1	4.0	-1
C=CCSc1nc2sc(C)c(C)c2c(=O)[nH]1	·	-21
C=CCNC(=O)C1CCN(S(=O)(=O)c2cccc(C(F)(F)F)c2)CC1	0.5	-2
O=C(O)CN=C1NC2(CCCC2)Cc2ccccc21	1.8	0
CC(C)Sc1n[nH]c(=S)n1C	-0.6	·
CN1C(=O)C2ON(c3ccccc3)C(c3ccccc3)C2C1=O (stereo unspecified)	·	-22
Cc1ccccc1C(=O)OC(C)CN1CCCC1 (stereo unspecified)	-3.9	6
CN(C)c1ccc(-c2nc3ccccc3s2)cc1	1.6	-3
CCn1c(SCC(=O)c2ccccc2)nc2sc3c(c2c1=O)CC(C)(C)OC3	-2.4	·
CCCn1c(=S)[nH]c2cc(C(=O)N3CCN(C)CC3)ccc2c1=O	·	2
CC(C)Cn1c(C23CC4CC(CC(C4)C2)C3)n[nH]c1=S	-0.4	2
Nc1ccc(N2CCOCC2)c2nonc12	7.4	16
CN(CC(=O)N1CCc2ccccc21)S(=O)(=O)c1ccc2[nH]c3c(c2c1)CCCC3	0.1	11
CCSc1nnc(NC(=O)c2ccc3c(c2)NC(=O)CS3)s1	·	0
CN1C(=O)C(=Cc2cc(Br)ccc2OCCOc2ccccc2)C(=O)N(C)C1=O	2.0	·

# Gathered by group: the entries above with a CF3 group
smiles	MgrA DNA FP	S aureus helic
O=C(Nc1ccc(F)cc1F)c1c(C(F)(F)F)ccnc1Oc1ccccc1	-2.2	·
C=CCC1CC(=O)N(c2ccc(C(F)(F)F)cc2)C1=O (stereo unspecified)	1.5	·
C=CCNC(=O)C1CCN(S(=O)(=O)c2cccc(C(F)(F)F)c2)CC1	0.5	-2

# Next entries:
smiles	MgrA DNA FP	S aureus helic
CNC(=O)CSCc1ccc(Br)cc1	-0.4	-16
O=C(NCCc1c[nH]c2ccc(Cl)cc12)C1CCCO1 (stereo unspecified)	1.9	8
CCn1c(CCc2nnc(SCC(=O)c3ccccc3)n2CC)nnc1SCC(=O)c1ccccc1	·	12
CCOc1ccc(CC(=O)NCc2cn3ccc(C)cc3n2)cc1	1.0	2
Nc1nc(CSC(=S)N2CCCCC2)nc(Nc2ccccc2)n1	0.9	3
CC1OC23CCCCC2C(C#N)(C#N)C1(C#N)C(=N)O3 (stereo unspecified)	·	9
c1ccc(-c2csc(-c3ccncc3)n2)cc1	-0.8	·
O=C(NCCNC1CCCC1)c1cccs1	1.5	9
OCC(CO)(CO)NC(=S)Nc1cc(Cl)cc(Cl)c1	-0.2	·
COc1ccc2nc(-c3ccccc3)cc(NCCN(C)C)c2c1	7.1	·
Cc1cc(CNC(=O)c2cc(C)n(C)n2)c(C(F)(F)F)o1	-0.3	·
CC1CCN(C(=O)c2ccccc2Br)CC1	2.3	10
COc1ccc(C(O)c2nc3ccccc3s2)cc1 (stereo unspecified)	·	-24
CCc1nn2c(=O)cc(CSc3nc4sc5c(c4c(=O)n3C)CCCC5)nc2s1	·	12
CCN(C(=O)Cc1ccc(NC2=NC3CS(=O)(=O)CC3S2)cc1)c1ccccc1 (stereo unspecified)	·	37
CCn1c(CNC(=O)c2ccco2)nnc1SCC(=O)c1ccccc1	-4.2	2
COc1ccccc1OC(=O)NC(=O)C(F)(F)F	·	-4
Cc1ccc(N2C(=O)C(CC(=O)Nc3ccc(Cl)cc3)N(CCN3CCN(C)CC3)C2=S)cc1 (stereo unspecified)	·	33
Nc1nc(SCC(=O)N2N=C(c3ccco3)CC2c2cccs2)n[nH]1 (stereo unspecified)	·	6
COc1ccc(OCC(=O)N2c3ccccc3C(C)(c3ccccc3)CC2(C)C)cc1 (stereo unspecified)	0.7	18

# The list goes on.
# Values run as follows: MgrA DNA FP | S aureus helic
COC(=O)c1ccccc1NC(=O)Cn1c(C)ccc1C
 : 0.2 | 17
O=C(CSc1ccccn1)Nc1ccc(F)c(Cl)c1
 : -0.6 | ·
O=C(Cc1ccc(S(=O)(=O)N2CCOCC2)s1)Nc1ccc(-c2cn3ccsc3n2)cc1
 : · | -24
Cc1ccc2nc(SCc3nc4ccccc4n3C)[nH]c2c1
 : · | 2
COC(=O)/C=C1\SC(=Nc2ccccc2)NC1=O
 : 0.6 | 15
O=C(CSc1nnc(NC2CCCCC2)s1)OCc1nnc(-c2ccccc2)o1
 : · | 3
O=C(NCc1ccc2c(c1)OCO2)c1cc2ccccc2oc1=O
 : · | -16
C=CCN(CC=C)S(=O)(=O)c1ccc(OC)cc1
 : -0.2 | -1
Cc1nn(C)c2ncc(C(=O)c3cc(F)ccc3O)cc12
 : · | 3
COc1cccc(C=Nc2ccccc2SCCC#N)c1O
 : 0.7 | ·

# A draw from above in order of formula weight, highest first.
# Values run as follows: MgrA DNA FP | S aureus helic
Cc1ccc(N2C(=O)C(CC(=O)Nc3ccc(Cl)cc3)N(CCN3CCN(C)CC3)C2=S)cc1 (stereo unspecified)
 : · | 33
CN1C(=O)C2ON(c3ccccc3)C(c3ccccc3)C2C1=O (stereo unspecified)
 : · | -22
O=C(NCCNC1CCCC1)c1cccs1
 : 1.5 | 9

# Carrying on.
# Values run as follows: MgrA DNA FP | S aureus helic
CC1CC1C(=O)NC1CCCCC1C(C)(C)C (stereo unspecified)
 : -2.0 | 0
CC(C)c1ccccc1NC(=O)c1cccc(S(=O)(=O)N(C)C)c1
 : -2.9 | -11
C=C(C)Cc1c(C)[nH]n(S(=O)(=O)c2ccccc2)c1=O
 : -3.5 | ·
O=c1cc(Cc2nnc(SCc3ccccc3)n2-c2ccccc2)[nH]c(=O)[nH]1
 : · | 8
CC(C(=O)N1CCc2ccccc21)n1sc2ccccc2c1=O (stereo unspecified)
 : 0.5 | -6
COc1c([N+](=O)[O-])cc(C(F)(F)F)cc1[N+](=O)[O-]
 : -0.8 | ·
Cc1ccc(Cn2nc(C)c3cc(C(=O)NC4=NCCS4)sc32)cc1
 : · | -7
Cc1cc(C(C)(C)C)oc1C(=O)N(CC(=O)NC1CCCC1)c1ccc(F)cc1
 : -0.6 | 5
CC(CNc1nc2ccccc2n2cnnc12)c1ccccc1 (stereo unspecified)
 : -0.3 | 19
N#Cc1c(Cl)nc(-c2ccccc2)nc1-c1ccccc1
 : -2.2 | ·

# Record cards, as listed above. Values in the order: MgrA DNA FP	S aureus helic
# `CC(CNc1nc2ccccc2n2cnnc12)c1ccccc1` (stereo unspecified) as listed: -0.3	19
# `Nc1nc(CSC(=S)N2CCCCC2)nc(Nc2ccccc2)n1` as listed: 0.9	3
# `CC1CC(C)CN(C(=O)CNC(=O)Cn2cnc3ccccc3c2=O)C1` (stereo unspecified) as listed: ·	-4
# `COc1ccccc1OC(=O)NC(=O)C(F)(F)F` as listed: ·	-4

# Next part:
# Values run as follows: MgrA DNA FP | S aureus helic
N/C(=N\O)c1c(-c2ccccc2)cc(-c2ccc(F)cc2)[nH]c1=O
 : 0.6 | ·
CN(C(=O)COC(=O)C1COc2ccccc2O1)C1CCCCC1 (stereo unspecified)
 : · | -10
O=C(NCc1ccco1)OCC(F)(F)F
 : · | -4
COC(=O)CC1NC(=O)NC1=O (stereo unspecified)
 : · | -4
NC(=O)c1cc(S(=O)(=O)NCCN2CCCCCC2)cs1
 : · | 20
N#C/C(=C\Nc1cccc(C(F)(F)F)c1)C(=O)N1CCOCC1
 : -0.8 | -2
N#CC(C(=O)c1ccc(S(=O)(=O)N2CCCC2)cc1)c1nc2ccccc2[nH]1 (stereo unspecified)
 : · | -10
COc1ccc(N=C2SC(C(=O)Nc3ccccc3OC)CC(=O)N2Cc2ccc3c(c2)OCO3)cc1 (stereo unspecified)
 : 1.2 | ·
O=C1CC(c2ccccc2)N(c2cccc(C(F)(F)F)c2)C(=S)N1 (stereo unspecified)
 : -1.1 | ·
CCOC(=O)c1[nH]nc(C(=O)c2ccccc2)c1-c1ccccc1
 : · | 6
Cc1ccc(-n2nc(C)c3c(C)c(CCC(=O)NCC4CCN(C5CCCC5)C4)c(C)nc32)cc1C (stereo unspecified)
 : -0.7 | 32
O=C(NC1CCSC1)c1ccccc1NS(=O)(=O)c1ccccc1 (stereo unspecified)
 : -0.6 | ·
CCNC(=O)CC1C(=O)N(CC)C(=S)N1NC(=O)c1ccccc1 (stereo unspecified)
 : 0.4 | 4
Cc1nn(-c2ccccc2)c2sc(C(=O)OCN3C(=O)c4ccccc4C3=O)cc12
 : 1.1 | 12
O=C(O)c1ccccc1-c1ccccc1C(=O)NCc1cccnc1
 : · | 11
CCOC(=O)c1csc(-c2cn(-c3ccccc3)c(=O)n(C)c2=O)n1
 : · | -14
O=C(COc1ccccc1)Nc1cccc(F)c1C(=O)O
 : -3.6 | ·
CCOC(=O)c1nn(-c2ccc(Cl)cc2)c(=N)c2c(N)c(C#N)c(N)nc12
 : 5.1 | 9
CCCN1CNc2c(c(=O)n(C)c(=O)n2C)C1
 : · | -22
COc1cc(C)nc(-c2csc(C)n2)n1
 : 4.2 | ·
O=C(O)/C=C/Sc1ccccc1
 : · | 13
COC(=O)c1[nH]c(-c2ccccc2)c(C)c1C(=O)OC
 : 0.5 | ·
O=C(CSCc1ccc(F)cc1)NC1CCCCC1
 : -5.5 | 5
CC(=O)NCCCc1nc2ccccc2n1Cc1ccccc1C
 : · | 16
CC(=O)Nc1ccc(Oc2ccccc2)cc1
 : -1.4 | 7
CCCn1c(SCC(=O)NCc2ccc(Cl)cc2)n[nH]c1=O
 : · | -5
Cc1oc2cc(O)ccc2c(=O)c1-c1nc2ccccc2s1
 : · | -23
CCOC(=O)c1cc(-c2ccccc2)sc1NC(=O)COC(=O)C1CC(=O)N(Cc2ccco2)C1 (stereo unspecified)
 : · | 1
CCOC(=O)CCN1C(=O)/C(=C/c2ccc(C)cc2)SC1=S
 : · | 6
Cc1onc(-c2c(Cl)cccc2Cl)c1CSc1nncn1C(C)(C)C
 : -0.6 | ·
O=C(CCN1CCc2ccccc2C1)Nc1ccc(F)c(F)c1
 : -1.9 | 3
COc1ccc(CN(CCC(c2ccc3c(c2)OCO3)c2ccccc2OC)C(=O)c2ccco2)cc1 (stereo unspecified)
 : 2.7 | 11
O=S1NN(c2ccccc2)S(=O)NN1c1ccccc1 (stereo unspecified)
 : 0.3 | 0
Cc1c(-c2csc(-c3ccc4c(c3)OCCO4)n2)cnn1-c1ccccc1
 : · | -13
CS(=O)(=O)N(CC(=O)N1CCCC1)c1ccc2c(c1)OCO2
 : -0.8 | 20
CCCN=Cc1c(O)n(C2CCCCC2)c(=O)n(C2CCCCC2)c1=O
 : 1.2 | 4
CCC(=O)NCCCc1nc2ccccc2n1Cc1ccccc1C
 : · | 16
COc1cc(CNCCC2CCOC(C)(C)C2)ccc1O (stereo unspecified)
 : · | 11
CN1CCN(C(=O)c2ccc(N(C)S(C)(=O)=O)cc2)CC1
 : 1.8 | 0
O=C(COC(=O)Cc1ccc(Cl)cc1Cl)NC1CCCCC1
 : -0.8 | -3
CC1(C)Oc2nc3ccccc3n2/C1=C\C#N
 : -2.2 | 8
COCCOC(=O)C1=C(C)N(C)C(=O)NC1c1cc(Br)c(O)c(OC)c1 (stereo unspecified)
 : -1.9 | ·
CCOC(=O)C(C(=O)Nc1ccc(N(CC)CC)cc1)C1CCCCC1 (stereo unspecified)
 : 1.4 | 13
O=C(Nc1cccc(C(F)(F)F)c1)C(F)(F)F
 : 1.6 | ·
COC(=O)c1ccc(S(=O)(=O)NCc2csc3ccc(Cl)cc23)n1C
 : -1.9 | ·

# Compound activity deposited in PubChem by ICCB-Longwood Screening Facility, Harvard Medical School.

# This is a subset; the hit share may differ from the screen's.
